ALR H2O2 inh: inhibitors of human ALR sulfhydryl oxidase, primary screen, biochemical, H2O2 detection, HRP-luminol luminescence, single point. FAD-linked sulfhydryl oxidase ALR (Homo sapiens), P55789. AID 485317, 2010. purified ALR, DTT oxidation. inhibition, % (no concentration beside the values). 290,000 compounds, 3.8% hits;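 active = mean and each replicate at 75% or more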;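 note: stock transfer was 7.5 nL into about 7.5 µL; 0% = neutral wells and 100% = wells with inactivated enzyme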
Target sequence (P55789 whole entry, looked up): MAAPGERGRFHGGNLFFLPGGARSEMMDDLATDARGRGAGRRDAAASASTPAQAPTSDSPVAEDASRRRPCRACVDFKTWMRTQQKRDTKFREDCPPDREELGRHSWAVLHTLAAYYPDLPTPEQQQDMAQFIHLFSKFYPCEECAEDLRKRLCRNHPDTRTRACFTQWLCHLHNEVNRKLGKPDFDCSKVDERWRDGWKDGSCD
rRNA inh HTS: reduced GFP signal of wild-type E. coli, primary screen, bacterial rRNA inhibitor project, GFP/RFP fluorescence, OD600, single point; GFP signal change (wild-type ribosome), % (no concentration beside the values); AID 720706, 2013; 350,000 compounds, 1.6% hits; E. coli WT GFP vs humanized-ribosome RFP mutants, 24 h; hits give low values; DMSO median 0, no signal -100;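 active = significant combined selectivity score with lowered wild-type GFP, culture density cut under 30%, mutant RFP and density less affected; inactive = any of these conditions unmet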; note: one replicate is shown; some compounds called inactive have numbers as strong as hits
FGF22 binding: binders of human FGF22 protein, primary screen, FGF22 synaptogenesis inhibitor project, biophysical, thermal shift, single point; Fibroblast growth factor 22 (Homo sapiens), Q9HCT0; recombinant FGF22 thermal shift, SYPRO orange fluorescence; percent of sucrose octasulfate shift, DMSO zero; 340,000 compounds, 1.5% hits; calls only at 9.99 µM;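 active = melting point raised past a set limit in the mean and every replicate; three in four hits are not shown here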
B2AR ag: beta2AR agonists driving receptor internalization, primary screen, cell-based, FAP fluorogen, flow cytometry; Beta-2 adrenergic receptor (Homo sapiens), P07550; Am2.2-beta2AR cells; reference of the scale not given here; response, % (test concentration not listed); 340,000 compounds, 0.43% hits;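 active = response above a set limit, near 3 SD of response in nonfluorescent compounds, cut at about 42% in these data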;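 note: stock transfer was 100 nL into about 11 µL; a reference agonist was the positive control; negative values mostly stem from fluorescent compounds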
Target sequence (P07550 whole entry, looked up): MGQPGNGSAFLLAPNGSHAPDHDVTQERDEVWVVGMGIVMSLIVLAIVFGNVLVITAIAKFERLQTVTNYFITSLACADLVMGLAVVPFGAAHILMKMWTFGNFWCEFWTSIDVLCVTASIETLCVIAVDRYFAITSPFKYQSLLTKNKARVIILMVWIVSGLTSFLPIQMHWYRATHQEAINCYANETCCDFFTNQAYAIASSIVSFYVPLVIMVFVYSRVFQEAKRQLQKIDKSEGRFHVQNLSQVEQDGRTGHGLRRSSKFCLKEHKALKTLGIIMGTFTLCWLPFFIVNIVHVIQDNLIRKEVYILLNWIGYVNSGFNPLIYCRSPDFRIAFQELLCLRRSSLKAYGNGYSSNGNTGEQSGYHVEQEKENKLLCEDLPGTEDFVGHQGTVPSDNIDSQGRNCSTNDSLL
UCH37 inh: inhibitors of human UCH37 deubiquitinase, primary screen, biochemical, Ub-AMC cleavage, fluorescence. Ubiquitin carboxyl-terminal hydrolase isozyme L5 (Homo sapiens), Q9Y5K5. purified proteasome/UCH37. inhibition, % (test concentration not listed). 330,000 compounds, 0.33% hits. AID 588478, 2011;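 active = mean of two replicates above 20%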;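 note: 0% = compound-free wells with enzyme and 100% = wells lacking proteasome; stock transfer was 100 nL into about 20 µL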
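Test system – human UCH37 enzyme supplied as purified proteasome complex · Incubation – 30 min preincubation with enzyme, 25 min cleavage at room temperature · Detection – AMC fluorescence from Ub-AMC cleavage, excitation 355 nm, emission 460 nm · Benchmarks – no-proteasome wells (full inhibition) and compound-free wells (no inhibition)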
HNF4A DNA FP: change in binding of human HNF4A to DNA, primary screen, biochemical, fluorescence polarization, FITC-DNA; activity change, % at 10 µM; Hepatocyte nuclear factor 4-alpha (Homo sapiens), P41235; 360,000 compounds, 0.3% hits; 1 h; in the data active = activity change above about 30%, passing the limit was not always enough;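 note: controls were the assay level and a saturating level of protein; the project sought stronger binding though the title names inhibitors; some compounds called inactive have numbers as strong as hits; positive values seem to mean higher polarization but the record does not say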
Target sequence (P41235 whole entry, looked up): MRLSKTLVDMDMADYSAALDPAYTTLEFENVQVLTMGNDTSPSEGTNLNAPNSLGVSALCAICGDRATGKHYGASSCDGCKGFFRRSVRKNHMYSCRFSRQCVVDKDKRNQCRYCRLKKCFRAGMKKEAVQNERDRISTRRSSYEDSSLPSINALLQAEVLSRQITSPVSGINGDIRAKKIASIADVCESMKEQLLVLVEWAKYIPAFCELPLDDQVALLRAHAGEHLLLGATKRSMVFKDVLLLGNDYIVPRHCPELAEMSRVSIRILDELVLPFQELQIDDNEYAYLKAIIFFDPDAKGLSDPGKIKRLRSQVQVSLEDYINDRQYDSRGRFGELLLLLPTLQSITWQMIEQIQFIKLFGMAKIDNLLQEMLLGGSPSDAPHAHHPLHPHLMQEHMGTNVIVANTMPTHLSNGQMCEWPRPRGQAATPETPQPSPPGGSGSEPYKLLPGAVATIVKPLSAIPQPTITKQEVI
Ecoli growth: E. coli growth inhibition, primary screen, OD600 | OD600 absorbance (no concentration beside the values) | Escherichia coli growth, 23 h; hits give low values | 330,000 compounds, 0.21% hits;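 active = OD600 absorbance below the run mean of sample wells minus 3.6 SD, in any replicate, cut at about 0.56 in these data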;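 note: stock transfer was 300 nL into about 60 µL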
rRNA inh HTS OD600: second read-out of rRNA inh HTS, no call of its own (marks repeat the call); OD600 change, %; measured here: OD600 growth;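 optical density of the mix in the first replicate; 0 = DMSO median and -100 = no signal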
rRNA inh HTS RFP: recorded beside rRNA inh HTS, whose call it bears; RFP signal change, %; measured here: RFP humanized mutant strains;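 first replicate; 0 = DMSO median and -100 = no signal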
* marks the source's active call; other numbers are inactive results; i = inactive; nt = not tested or not shown. This is a subset. The share of hits here may be higher or lower than overall.

SMILES	ALR H2O2 inh	rRNA inh HTS	rRNA inh HTS OD600	rRNA inh HTS RFP	FGF22 binding	B2AR ag	UCH37 inh	HNF4A DNA FP	Ecoli growth
COc1ccc(S(=O)(=O)N2CCN(Cc3ccccc3[N+](=O)[O-])CC2)cc1	-18	-14	-20	-2.9	i	0	3.1	-0.1	0.65
O=C(Nc1nn[nH]n1)c1cccc([N+](=O)[O-])c1	1	11	19	-0.5	i	-2	nt	-0.9	nt
Cc1cc(NC(=O)c2noc3c2CCCCC3)no1	-8	9	11	-6.8	i	-12	1.6	-1.3	0.72
O=C(Nc1cccnc1)C1CC(c2ccc(Cl)c(Cl)c2)=NO1 (stereo unspecified)	-1	nt	nt	nt	nt	-7	-0.2	-3.1	0.64
O=C1NC[C@H](c2ccccc2)N(CC2CCCCC2)C1=O	-20	0	0	-3.0	i	1	4.5	-3.3	nt
CC(C)c1ccc(-c2csc(NC(=O)c3cccs3)c2C(=O)O)cc1	54	-54	-79	-31	i	2	0.4	-4.6	0.68
COc1ccc(CCNC(=O)c2ccccc2NC(=O)CN2CCN(c3ccccc3O)CC2)cc1	nt	-11	-26	6.5	i	11	0.7	-0.3	0.73
Cc1cccc(N2CCN(C(=O)C3CCN(S(=O)(=O)c4cccc5cccnc45)CC3)CC2C)c1 (stereo unspecified)	5	-12	-4	14	i	20	4.3	1.4	0.73
Cc1ccc(-c2csc(N=C(N)N)n2)c(C)c1	68	-24	-27	-1.2	i	6	1.2	-4.8	0.44*
CCc1cc(C(=O)N2CCN(C(=O)c3ccccc3)CC2)sc1C	nt	-2	-2	2.9	i	6	2.1	0.4	0.7
COc1ccc(C(=O)N2CCN(c3ccc(N4CCOCC4)nn3)CC2)cc1OC	-23	6	10	-0.1	i	-5	-182	1.2	0.7
CCOC(=O)c1cnc(SCC(=O)Nc2ccccc2C(=O)OC)nc1N	nt	nt	nt	nt	nt	3	5.0	4.8	0.67
O=C(C1CC1)N1CCN(c2ccc(F)cc2)CC1	nt	10	7	-1.2	i	10	3.2	1.3	0.66
O=C(c1ccc(Cl)cc1)c1oc2ccccc2c1CS(=O)(=O)c1ccccc1	-9	12	12	-8.1	i	-11	6.5	2.4	0.66
Cc1ccc(Sc2cc(C(=O)NCCN(C)C)c3ccccc3n2)cc1	2	-1	-2	-0.9	i	0	8.5	0.3	0.69
Cc1ccc(NC(=O)CCC(=O)N/N=C/c2cccnc2)cc1	nt	5	2	-1.6	i	-5	nt	-0.8	nt
O=C(Nc1ccc(O)cc1)c1cc(S(=O)(=O)N2CCCC2)ccc1Cl	99*	nt	nt	nt	nt	3	4.8	0.3	0.67
COCCNCc1ccccc1	-8	23	3	1.9	i	1	-0.1	0.4	0.72
COc1c(F)cccc1C1=CC(=O)C[C@H](c2ccc3c(c2)OCO3)C1	-1	-25	-34	-19	i	17	1.2	2.2	nt
NS(=O)(=O)c1ccc(CCNC(=O)c2ccc([N+](=O)[O-])s2)cc1	-32	-2	-8	1.3	i	2	8.9	-1.0	0.63
COc1cc(NC(=O)c2ncn[nH]2)cc(OC)c1OC	nt	nt	nt	nt	nt	3	3.0	-0.2	0.68
CC(C)Cc1cc(C(=O)NCc2cccnc2)no1	nt	-3	-2	-4.5	i	25	1.0	-2.3	0.69
COc1ccc(CNC(=O)c2cc(-c3cc(C)cc(C)c3O)n[nH]2)cc1	15	3	5	6.9	i	-5	2.6	-2.8	0.7
COc1cccc(N2CCN(c3ncccn3)CC2)c1	nt	nt	nt	nt	nt	1	0.7	0.2	0.67
Cc1ccc(C(=O)NCC(=O)N(C)Cc2ccccc2C)s1	nt	-1	7	-1.7	i	nt	nt	2.8	nt

Quoted at random: 6 entries already listed, in no set order.
SMILES	ALR H2O2 inh	rRNA inh HTS	rRNA inh HTS OD600	rRNA inh HTS RFP	FGF22 binding	B2AR ag	UCH37 inh	HNF4A DNA FP	Ecoli growth
COc1ccc(CNC(=O)c2cc(-c3cc(C)cc(C)c3O)n[nH]2)cc1	15	3	5	6.9	i	-5	2.6	-2.8	0.7
O=C(c1ccc(Cl)cc1)c1oc2ccccc2c1CS(=O)(=O)c1ccccc1	-9	12	12	-8.1	i	-11	6.5	2.4	0.66
Cc1ccc(-c2csc(N=C(N)N)n2)c(C)c1	68	-24	-27	-1.2	i	6	1.2	-4.8	0.44*
O=C1NC[C@H](c2ccccc2)N(CC2CCCCC2)C1=O	-20	0	0	-3.0	i	1	4.5	-3.3	nt
Cc1ccc(Sc2cc(C(=O)NCCN(C)C)c3ccccc3n2)cc1	2	-1	-2	-0.9	i	0	8.5	0.3	0.69
Cc1ccc(C(=O)NCC(=O)N(C)Cc2ccccc2C)s1	nt	-1	7	-1.7	i	nt	nt	2.8	nt

Later entries.
SMILES	ALR H2O2 inh	rRNA inh HTS	rRNA inh HTS OD600	rRNA inh HTS RFP	FGF22 binding	B2AR ag	UCH37 inh	HNF4A DNA FP	Ecoli growth
O=Cc1ccc(Oc2cc(-c3ccccc3)nc(-c3ccccc3)n2)cc1	-1	nt	nt	nt	nt	5	3.9	-1.9	0.69
CCCCC(=O)Nc1ccc(N2CCN(C(=O)CC)CC2)cc1	-7	nt	nt	nt	nt	4	0.5	4.7	0.74
Cc1ccc(C2C3CN(C(C)C)CC=C3C(C#N)=C(N)C2(C#N)C#N)cc1 (stereo unspecified)	7	nt	nt	nt	nt	-14	-105	-51	0.73
COc1ccc(-n2c(=O)c(CCC(=O)NCCc3ccccc3F)nc3ccccc32)cc1	-1	-2	0	19	i	11	0.3	3.2	0.73
CCCCN1C(=O)N(C)C2NC(=S)NC21 (stereo unspecified)	4	9	7	0.0	i	17	4.4	-1.7	0.64
COc1cccc(NS(=O)(=O)c2cc(C)ccc2OC)c1	0	nt	nt	nt	nt	6	-0.2	0.7	0.68
Cc1ccc(CNC(=O)COC(=O)C2CCC2)cc1	3	13	14	0.2	i	0	2.3	-0.2	0.71
COc1ccc(/C=C2\CCn3c2nc2cc(C(=O)O)ccc2c3=O)cc1	nt	-8	0	-3.2	i	-7	-3.5	-1.7	0.65
CCOC(=O)c1[nH]c(C)c(C(=O)NC2CCCC2)c1C	-1	4	5	1.3	i	3	1.3	1.4	0.7
Cc1ccc(C(=O)Nc2cccc(NC(=O)CN3CCCCC3)c2)cc1	13	-11	-5	-2.5	i	0	0.7	0.3	0.65
CCOc1cc2[nH]c(=O)n(CCCC(=O)N(C)Cc3ccccc3)c(=O)c2cc1OCC	-6	-28	-23	-1.2	i	-6	-13	-7.2	0.67
CCNS(=O)(=O)c1c(C)cc(N2CCCC2=O)cc1C	2	nt	nt	nt	nt	-4	2.6	-1.4	0.74
COc1ccc(/C(C)=N/NC(=O)CN(c2ccc(OC)cc2)S(=O)(=O)c2ccccc2)cc1	-8	8	9	0.8	i	0	nt	-0.1	nt
COc1ccc(OC)c(NC(=O)CCNS(=O)(=O)c2ccc3c(c2)oc(=O)n3C)c1	-20	-1	4	-2.3	i	4	3.4	2.4	0.69
Cc1nc2ccccc2n(CC(=O)Nc2cc(Cl)cc(Cl)c2)c1=O	-1	4	-2	-0.9	i	8	-18	2.6	0.7
CC(C)=NNc1nc(-c2ccc(N3C(=O)CCC3=O)cc2)cs1	99*	-6	-2	-0.8	i	-2	5.2	-0.9	0.66
COc1ccc(CN2C[C@@H](CO)O[C@@H](n3cnc4c(NC5CC5)ncnc43)C2)cc1	nt	9	17	0.1	i	nt	nt	3.2	nt
Cc1nc2nc(N)nn2c(C)c1C/C=C/c1ccccc1	-1	15	9	-0.4	i	-6	1.2	0.2	0.7
COCOCCn1cc(CN2CCS(=O)(=O)N(Cc3ccc(-c4ccc(C)cc4)cc3)C(CC(C)C)C2=O)nn1 (stereo unspecified)	nt	-1	5	-1.7	i	nt	nt	-4.1	nt
O=C(COC(=O)C1(c2ccccc2F)CCCC1)N1CCNC1=O	nt	3	0	-4.2	nt	-3	6.1	-2.0	0.7
Cc1cccc2c(=O)c(-c3ccc4c(c3)OCO4)c(NC(=O)c3ccco3)oc12	4	0	2	-1.4	i	-5	4.9	-0.1	0.67
O=C(CN1C(=O)c2cccc3cccc1c23)NCc1ccncc1	-13	nt	nt	nt	nt	-4	-23	-0.7	0.7
CC(=O)c1ccc(NC(=O)CSc2nc3nc(C)cc(C)n3n2)cc1	-2	3	2	-1.5	i	-15	0.7	2.8	0.68
CCC(C)OC(=O)C1=C(C)NC(=O)CC1c1ccccc1OC (stereo unspecified)	nt	nt	nt	nt	nt	16	-1.0	-0.5	0.73
COc1cccc(CNC(=O)C2CCN(S(=O)(=O)c3cccc4nonc34)CC2)c1	-17	6	12	-2.0	i	12	0.7	5.8	0.66
Going on with the list.
SMILES	ALR H2O2 inh	rRNA inh HTS	rRNA inh HTS OD600	rRNA inh HTS RFP	FGF22 binding	B2AR ag	UCH37 inh	HNF4A DNA FP	Ecoli growth
O=C(NCc1ccc(Cl)cc1)C1CCN(C(=O)c2ccc(Cl)cc2)CC1	nt	-1	-15	-1.1	i	1	1.1	-1.4	0.63
O=C(NCc1cc(C(F)(F)F)cc(C(F)(F)F)c1)C1CC(c2c(Cl)cccc2Cl)=NO1 (stereo unspecified)	-16	-3	-9	-0.6	i	-10	0.5	4.0	0.66
O=C(c1cccc2ccccc12)N1CCC(N2CCN(c3ccccc3)CC2)CC1	34	nt	nt	nt	nt	12	-0.3	-1.6	0.67
Cn1cc(CNC(=O)c2sc3cccc(Cl)c3c2Cl)cn1	nt	nt	nt	nt	nt	-9	7.0	0.0	0.7
Cc1ccc(S(=O)(=O)n2ccc(-c3ccc(OCc4c(F)cccc4Cl)cc3)n2)cc1	5	nt	nt	nt	nt	-4	-0.4	0.3	0.75
CCC(C)(C)NC(=O)CN(C(=O)c1snc(C(N)=O)c1N)c1ccc(OC)c(OC)c1	-22	nt	nt	nt	nt	-2	3.6	-1.2	0.7
Cc1ccccc1-c1nnc(NC(=O)c2ccc(N3C(=O)CCC3=O)cc2)s1	-14	3	7	-3.4	i	5	nt	-3.0	nt
Cc1nc(N2C(=O)C(=O)/C(=C(/O)c3ccccc3)C2c2ccco2)sc1C (stereo unspecified)	0	nt	nt	nt	nt	-2	2.5	-5.0	nt
Cc1c(NC(=O)c2coc(=O)c(Br)c2)c(=O)n(-c2ccccc2)n1C	51	nt	nt	nt	nt	3	-6.5	2.2	0.64
CC(C)CCNC(=O)c1ccccc1NC(=O)C1=CSCCO1	-1	-1	13	-3.4	i	5	5.6	-2.3	0.68
C=CCn1c(CCSCc2ccccc2)n[nH]c1=S	94*	-1	-1	1.3	i	4	4.4	2.1	0.69
Cc1cc(C)cc(NC(=O)CSc2nc3c(oc4ccccc43)c(=O)n2-c2ccccc2)c1	nt	15	7	-0.8	i	1	2.8	-0.5	0.71
CC(C)n1nccc1NC(=O)COC(=O)c1ccc(NC(N)=O)cc1	1	12	15	-1.7	i	4	0.6	4.0	0.69
CCn1c(=O)cc(OCC(=O)Nc2ccc(C)cn2)c2ccccc21	-9	nt	nt	nt	nt	-22	-2.2	4.9	0.73

Screening data deposited in PubChem by several laboratories.
